TRPML1 ag: agonists of human TRPML1 channel; 0.12% of 410,000 active; TRPML1-expressing cells, Ca2+ dye fluorescence, FDSS; host cell line not named in the record; reference of the full effect not given here; activation, % (concentration not given with the values); in the data active = activation above about 50%; inconclusive = about 30% to 50%; inactive = below about 30%; note: 0% is about no effect; the text of the record puts the active cut at 80%
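Cells: TRPML1-DL, 1X Tet inducer, ~16 h at 37 degrees C/5% CO2. Dye: ABD Ca8 no-wash + quencher, 45-90 min RT. Read: 10 s baseline, compound add, 110 s agonist phase; 54-4 EC80 (4uM final), 110 s antagonist phase.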
PINK1 expr mod: PINK1 expression modulation; Potency, µM (top dose mostly 76.6 µM), for inactives: at the highest dose activation (PINK1 increase), actives largely listed as activators; 0.2% of 410,000 active; PINK1 immunofluorescence, high-content cytometry, 24 h; active = well fitted activation curve with a large enough effect; inconclusive = small, poorly fitted or top-dose-only effect; inactive = flat fitted curve, though single readings scatter; cell line not stated here;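 note: potency is the fitted concentration of half-maximal effect; % of control where 0% means no effect; nearly all actives have a fitted effect of over 65% in size; a mitochondrial uncoupler was the plate control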
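Stable cell line treated 24 h with compounds at 5 concentrations (CCCP controls), then fixed and immunostained for PINK1 plus nuclear and cell stains; PINK1 immunofluorescence quantified by laser-scanning microplate cytometry.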
D2 agonist: human D2 receptor agonism in beta-arrestin assay | P14416 | DiscoveRx PathHunter D2 beta-arrestin, luminescence, 90 min; 100% = 57 uM dopamine signal | activation, % (concentration not given with the values) | 0.084% of 360,000 active; in the data active = activation above about 40%; inconclusive = about 15% to 40%; inactive = below about 15%; note: compound concentration not given in the record; the text of the record calls up to 30% inactive
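DiscoveRx PathHunter D2 beta-arrestin cells (2,100/well) attached overnight, then compound-stimulated 90 min at 37 C in HBSS/10 mM HEPES/0.1% Tween-20 buffer; beta-galactosidase complementation read by luminescence after 1 h at ambient temperature. Dopamine 57 uM final (EC100) as control.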
D2 PAM: human D2 receptor positive allosteric modulation; P14416; DiscoveRx D2 beta-arrestin cells, luminescence, 90 min; 100% = 57 uM dopamine signal; potentiation, % (test concentration not listed); 0.23% of 360,000 active; AID 624464; active = potentiation of 50% or more; inconclusive = 30% to 50%; inactive = 30% or less;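 note: compound concentration not given in the record; tested on top of an EC20 dose of dopamine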
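PathHunter D2 cells, attached overnight at 37 deg C, received compound in DMSO plus dopamine at EC20 (50 nM final) for 90 min at 37 deg C. Beta-arrestin recruitment was read as luminescence after 1 h with detection reagent at ambient temperature.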
Six1-Eya2 inh: Six1/Eya2 interaction inhibition; Q15475+O00167; AlphaScreen GST-Six1/His-Eya2 binding, biochemical; hits give low values; control for the full effect not named in the record; activity change, % (test concentration not listed); 0.56% of 360,000 active; in the data active = activity change below about -65%; inconclusive = about -30% to -65%; inactive = above about -30%; note: % is set by controls: 0 for no effect and ±100 for the full control effect; compound concentration not given in the record
Target sequence (O00167 whole entry, looked up): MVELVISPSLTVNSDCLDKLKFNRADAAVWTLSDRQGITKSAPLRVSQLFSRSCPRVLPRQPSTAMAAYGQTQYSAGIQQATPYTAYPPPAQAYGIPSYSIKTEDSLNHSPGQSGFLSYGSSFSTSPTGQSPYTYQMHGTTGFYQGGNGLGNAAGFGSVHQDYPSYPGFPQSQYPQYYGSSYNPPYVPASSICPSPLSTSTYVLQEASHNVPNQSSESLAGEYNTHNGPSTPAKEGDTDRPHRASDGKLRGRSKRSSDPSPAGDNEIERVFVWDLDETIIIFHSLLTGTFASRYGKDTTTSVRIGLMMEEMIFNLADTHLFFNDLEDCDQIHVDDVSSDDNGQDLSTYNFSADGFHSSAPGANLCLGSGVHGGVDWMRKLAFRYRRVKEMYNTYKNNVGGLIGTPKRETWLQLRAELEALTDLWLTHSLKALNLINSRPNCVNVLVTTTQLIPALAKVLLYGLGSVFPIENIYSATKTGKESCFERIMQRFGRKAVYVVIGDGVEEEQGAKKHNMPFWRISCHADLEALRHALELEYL
Target sequence (Q15475 whole entry, looked up): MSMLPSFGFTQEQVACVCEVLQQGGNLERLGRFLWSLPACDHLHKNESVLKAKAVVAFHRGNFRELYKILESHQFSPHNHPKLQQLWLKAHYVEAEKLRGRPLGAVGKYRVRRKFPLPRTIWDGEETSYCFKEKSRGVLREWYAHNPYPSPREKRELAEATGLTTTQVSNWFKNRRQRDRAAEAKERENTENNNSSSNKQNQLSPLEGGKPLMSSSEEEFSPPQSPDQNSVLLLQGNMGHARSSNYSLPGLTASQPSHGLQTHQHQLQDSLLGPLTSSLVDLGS
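Six1/Eya2 binding was read as AlphaScreen signal after compounds were pinned into GST-Six1 plus His-tagged Eya2 (5X stock 250/500 nM) in pH 8.0 Tris/NaCl/TCEP buffer, beads added, then incubated 1 h, 37 C, dark.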
CtBP-E1A blk: inhibitors of CtBP/E1A interaction | AlphaScreen GST-E1A/His-CtBP binding, 1536-well; hits give low values; control for the full effect not named in the record | activity change, % (concentration not given with the values) | 0.49% of 340,000 active | AID 651724; in the data active means activity change below about -65%; inconclusive means about -30% to -65%; inactive means above about -30%; note: % is set by controls: 0 for no effect and ±100 for the full control effect
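GST-E1A and His-tagged CtBP (125 nM each as 5X stock) were preincubated with pin-transferred compound for 2 h at 37 °C in the dark, then glutathione donor and nickel acceptor beads were added for 1 h before AlphaScreen reading.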
* hit, by the source's call; & = joins results of further samples; [ ] = remark or other dose.

For CC(=O)c1cccc(NC(=O)c2ccc(N(C)S(=O)(=O)c3ccc(C)cc3)cc2)c1 the results were TRPML1 ag 2.0, PINK1 expr mod -1.3%, D2 agonist 6.5, D2 PAM -42, Six1-Eya2 inh -4 and CtBP-E1A blk 30.
Screening O=S(=O)(NCc1c(Cl)cccc1Oc1ccccc1)c1ccccc1 returned TRPML1 ag 1.4, PINK1 expr mod inconclusive, D2 agonist -2.0, D2 PAM -4, Six1-Eya2 inh -1 and CtBP-E1A blk -5.
NS(=O)(=O)c1cc(C(=O)N=Nc2c(O)[nH]c3ccccc23)ccc1Cl was read as TRPML1 ag -0.2, PINK1 expr mod -3.8%, D2 agonist 0.6, D2 PAM -3, Six1-Eya2 inh 4 and CtBP-E1A blk -4.
O=C(CSCc1ccc(F)cc1)N1CCN(c2ccc(F)cc2)CC1 was read as TRPML1 ag -0.2, PINK1 expr mod -0.6%[38.3 µM], D2 agonist 1.1, D2 PAM 2, Six1-Eya2 inh -2 and CtBP-E1A blk -1.
`N#CCCn1cc(C(N)=O)c(-c2ccc3ccccc3c2)n1` gave TRPML1 ag 0.3, PINK1 expr mod 0.0%, D2 agonist -2.8, D2 PAM 6, Six1-Eya2 inh -4 and CtBP-E1A blk 3.
Screening C[C@H](CO)N1C[C@H](C)[C@H](CN(C)C(=O)NC2CCCCC2)Oc2ncc(Br)cc2C1=O returned TRPML1 ag -0.5, PINK1 expr mod 2.7%, D2 agonist -3.4, D2 PAM -2, Six1-Eya2 inh 3 and CtBP-E1A blk 5.
Screening CCN(c1nc(N)c(C(=O)N=C(N)N)nc1Cl)C(C)C returned TRPML1 ag -0.4, PINK1 expr mod 3.1%, D2 agonist -4.4, D2 PAM -28, Six1-Eya2 inh -21 and CtBP-E1A blk inconclusive.
COc1ccc(-c2oc3c4c2C(=O)OCCOC4CCC3)cc1 (stereo not given) was read as TRPML1 ag -0.5, PINK1 expr mod -0.2%, Six1-Eya2 inh -8 and CtBP-E1A blk -9.
Cc1ccc(NC(=O)NC2CC(=O)N(c3ccc4c(c3)OCCO4)C2)cc1 (stereo not given) was read as TRPML1 ag 1.1, PINK1 expr mod -6.8%, D2 agonist -0.1, D2 PAM 11, Six1-Eya2 inh -4 and CtBP-E1A blk 2.
`O=C(Cc1cccc2ccccc12)Nc1ccc(O)cc1C(=O)O` gave TRPML1 ag 1.8, PINK1 expr mod 0.9%, D2 agonist 0.9, D2 PAM -8, Six1-Eya2 inh -1 and CtBP-E1A blk 4.
COc1ccc(Cc2nnc(NC(=O)c3ccccc3F)s2)cc1OC was read as PINK1 expr mod 0.5%, D2 agonist -1.4, D2 PAM -1 and Six1-Eya2 inh 2.
Screening COc1cc(C(=O)OCc2cc(=O)c(O)co2)ccc1OC(F)F returned TRPML1 ag -0.7, PINK1 expr mod 0.8%, D2 agonist 6.4, D2 PAM -7, Six1-Eya2 inh -7 and CtBP-E1A blk 3.
COc1ccc(CN2CCNC(=O)C2CC(=O)N(C)Cc2nccn2C)cc1OC (stereo not given) was read as TRPML1 ag 0.3, PINK1 expr mod 0.6%, D2 agonist -2.1, D2 PAM -7, Six1-Eya2 inh -6 and CtBP-E1A blk -1.
For O=C(CSc1ccc2nnc(CCNS(=O)(=O)c3ccccc3)n2n1)Nc1nc2ccccc2s1 the results were TRPML1 ag 2.9, PINK1 expr mod -1.1%, D2 agonist 0.4, D2 PAM 3, Six1-Eya2 inh -5 and CtBP-E1A blk 6.
Cc1csc(=O)n1CCC(=O)OCC(=O)Nc1ccc(Cl)cn1 was read as TRPML1 ag -0.1, PINK1 expr mod -0.6%, D2 agonist -3.1, D2 PAM -9, Six1-Eya2 inh -2 and CtBP-E1A blk 8.
Screening N#Cc1ccc(C(=O)Nc2nnc(-c3ccco3)o2)cc1 returned TRPML1 ag -1.1, PINK1 expr mod 2.5%, D2 agonist 0.3, D2 PAM 8, Six1-Eya2 inh -3 and CtBP-E1A blk -10.
For Cc1cc(NS(=O)(=O)c2ccc(NC(=O)COc3cc(C)c(Cl)c(C)c3)cc2)no1 the results were TRPML1 ag -1.6, PINK1 expr mod 1.7%, D2 agonist -0.5, D2 PAM 11 and Six1-Eya2 inh -10.
`CNC(=O)c1c(C)nn(-c2ccc(F)c(Cl)c2)c1-c1cc(C)on1` gave TRPML1 ag -0.7, PINK1 expr mod -0.7%, D2 agonist -3.6, D2 PAM -4, Six1-Eya2 inh 3 and CtBP-E1A blk 3.
`COc1ccc(NC(=O)CCCNC(=O)c2ccc(Cl)cc2)cc1OC` gave PINK1 expr mod 0.2%, D2 agonist -1.5, D2 PAM -8, Six1-Eya2 inh 2 and CtBP-E1A blk -3.
O=Cc1cccc(OC(=O)Nc2ccccc2)c1 was read as TRPML1 ag 0.6, PINK1 expr mod -0.3%, D2 agonist -3.4, D2 PAM -6, Six1-Eya2 inh 2 and CtBP-E1A blk 0.

Gathered by group, the entries above containing a furan ring, fused or not.
COc1ccc(-c2oc3c4c2C(=O)OCCOC4CCC3)cc1 (stereo not given) was read as TRPML1 ag -0.5, PINK1 expr mod -0.2%, Six1-Eya2 inh -8 and CtBP-E1A blk -9.
Screening N#Cc1ccc(C(=O)Nc2nnc(-c3ccco3)o2)cc1 returned TRPML1 ag -1.1, PINK1 expr mod 2.5%, D2 agonist 0.3, D2 PAM 8, Six1-Eya2 inh -3 and CtBP-E1A blk -10.

Among those listed so far, 2 have a cyano group.
`N#CCCn1cc(C(N)=O)c(-c2ccc3ccccc3c2)n1` gave TRPML1 ag 0.3, PINK1 expr mod 0.0%, D2 agonist -2.8, D2 PAM 6, Six1-Eya2 inh -4 and CtBP-E1A blk 3.
Screening N#Cc1ccc(C(=O)Nc2nnc(-c3ccco3)o2)cc1 returned TRPML1 ag -1.1, PINK1 expr mod 2.5%, D2 agonist 0.3, D2 PAM 8, Six1-Eya2 inh -3 and CtBP-E1A blk -10.

The listing continues.
Screening N#Cc1ccc(COC(=O)c2cnc3ccccc3n2)cc1 returned TRPML1 ag -0.5, PINK1 expr mod 0.0%, D2 agonist -4.7, D2 PAM -8, Six1-Eya2 inh -1 and CtBP-E1A blk 3.
Screening O=C(O)Cc1csc(NC(=O)c2ccco2)n1 returned TRPML1 ag 1.0, PINK1 expr mod 0.8%, D2 agonist -2.8, D2 PAM -10, Six1-Eya2 inh 4 and CtBP-E1A blk -4.
For C/C=C/C(=O)Nc1cccc(C2=NOC3(C2)C[C@@H](C(N)=O)N(C(=O)C(c2ccccc2)c2ccccc2)C3)c1 (stereo not given in full) the results were TRPML1 ag -0.7, PINK1 expr mod -0.1%, D2 agonist 1.1, D2 PAM -3, Six1-Eya2 inh 1 and CtBP-E1A blk 4.
`CCCNC(=O)c1ccc(COc2ccc(CCC)cc2OC)o1` gave TRPML1 ag -0.8, PINK1 expr mod 4.1%, D2 agonist 4.5, D2 PAM 0, Six1-Eya2 inh 1 and CtBP-E1A blk 5.
Screening O=C1/C(=C/c2cccs2)NC(=S)N1C1CC1 returned TRPML1 ag 0.0, PINK1 expr mod 2.9%, D2 agonist -9.4, D2 PAM -24, Six1-Eya2 inh 0 and CtBP-E1A blk 0.
COc1ccc(Cl)cc1NC(=O)CSc1nnc(CNC(=O)c2cccs2)o1 was read as TRPML1 ag -0.8, PINK1 expr mod -0.2%, D2 agonist -2.6, D2 PAM -24, Six1-Eya2 inh 7 and CtBP-E1A blk 3.
COc1ccc(C(=O)/C=C(\C)Nc2ccc3c(c2)OCO3)cc1 was read as TRPML1 ag -0.1, PINK1 expr mod 0.1%, D2 agonist 1.0, D2 PAM -8, Six1-Eya2 inh -9 and CtBP-E1A blk -13.
For CC(C)C[C@@H](COc1ccccc1)N1CCN(Cc2ccccc2)CCC1=O the results were TRPML1 ag 1.5&0.1, PINK1 expr mod 2.6%, D2 agonist 8.5, D2 PAM -6 and Six1-Eya2 inh -7.
Screening COc1ccc(NC(=O)N(C)C[C@@H]2OCc3cnnn3CCCC(=O)N([C@H](C)CO)C[C@@H]2C)cc1 returned TRPML1 ag 0.3, PINK1 expr mod 1.7%, D2 agonist -9.0, D2 PAM 3, Six1-Eya2 inh -15 and CtBP-E1A blk -15.
Screening Cc1onc(-c2c(F)cccc2Cl)c1C(=O)NC1CC1 returned TRPML1 ag -0.3, PINK1 expr mod 0.4%, D2 agonist -3.2, D2 PAM -10, Six1-Eya2 inh 1 and CtBP-E1A blk -20.
`CCCCNC(=O)C(=O)Nc1ccc2c(c1)N(S(=O)(=O)c1cccs1)CCC2` gave TRPML1 ag 0.3, PINK1 expr mod 17%, D2 agonist 1.5, D2 PAM -12, Six1-Eya2 inh 2 and CtBP-E1A blk 1.
CN(C)c1ccc(-c2n[nH]c(=S)n2-c2ccccc2)cc1 was read as TRPML1 ag -0.8, PINK1 expr mod 3.5%, D2 agonist -0.6, D2 PAM -2, Six1-Eya2 inh -4 and CtBP-E1A blk -2.
NC(=O)c1cc(NC(=O)COC(=O)CCCN2C(=O)c3cccc4cccc(c34)C2=O)cc(C(N)=O)c1 was read as TRPML1 ag 1.0, PINK1 expr mod -3.1%, D2 agonist -1.5, D2 PAM -6, Six1-Eya2 inh inconclusive and CtBP-E1A blk inconclusive.
Screening CCn1cc([N+](=O)[O-])c(C(=O)Nc2nc3ccc(OC)cc3s2)n1 returned TRPML1 ag 0.1, PINK1 expr mod -0.4%, D2 agonist -4.0, D2 PAM -11 and Six1-Eya2 inh -6.
`COC(=O)c1ccc(OC)c(CSc2nnc(-c3ccc(C)cc3)o2)c1` gave TRPML1 ag -0.2, PINK1 expr mod 2.9%, D2 agonist -0.4, D2 PAM -6, Six1-Eya2 inh 12 and CtBP-E1A blk -2.
For NC(=S)Nn1c(-c2ccccc2)nc2ccccc2c1=O the results were TRPML1 ag 0.0, PINK1 expr mod -1.7%, D2 agonist -4.5, D2 PAM -15, Six1-Eya2 inh 4 and CtBP-E1A blk -9.
For O=C(CNCc1ccccc1Cl)Nc1ccc(C(=O)N2CCCCC2)cc1 the results were TRPML1 ag 0.3, PINK1 expr mod -0.1%, D2 agonist -6.1, D2 PAM 4, Six1-Eya2 inh 3 and CtBP-E1A blk -3.
`CCN(Cc1ccccc1)C(=O)CSc1n[nH]c(N)n1` gave TRPML1 ag 0.1, PINK1 expr mod -0.8%, D2 agonist -6.0, D2 PAM -2, Six1-Eya2 inh 0 and CtBP-E1A blk 4.
CC(C)c1nnc(SCC(=O)N2CCc3ccccc32)n1N was read as TRPML1 ag -0.5, PINK1 expr mod 0.4%, D2 agonist -2.1, D2 PAM -42, Six1-Eya2 inh 4 and CtBP-E1A blk -11.
`CCCCCCCCCCCC(=O)NC(C(=O)O)C(O)c1ccccc1` (stereo not given) gave TRPML1 ag 0.8, PINK1 expr mod 7.3%, D2 agonist -3.3, D2 PAM -4, Six1-Eya2 inh -2 and CtBP-E1A blk 1.
Screening CC(NC(=O)c1ccc(S(=O)(=O)C(F)F)cc1)c1ccccc1 (stereo not given) returned TRPML1 ag -1.3, PINK1 expr mod -0.5%, D2 agonist -4.2, D2 PAM -18, Six1-Eya2 inh -6 and CtBP-E1A blk -1.
